Sfp PPTase inh – Sfp phosphopantetheinyl transferase inhibition. Q9F4F7. Biochemical Sfp PPTase activity, qHTS. Potency, µM, for the others: max response, negative = inhibition, hits mostly inhibitors. 310,000 compounds, 3.5% hits; active = well fitted inhibition curve with a large enough effect; inconclusive = small, poorly fitted or top-dose-only effect, or another doubt; inactive = no such curve, though single readings can be large or run the other way;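 also: the enzyme is Sfp with the accession as filed and its product quenches rhodamine fluorescence; potency is read from the fitted curve at half-maximal effect; 0% = enzyme reaction without inhibitor and -100% = no enzyme wells; top concentration of the series not given in the record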
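Sfp 15 nM + cpd, 15 min RT; start w/ rhodamine-CoA 5 uM, BHQ-2-YbbR 12.5 uM (final); 50 mM Hepes pH 7.6, 10 mM MgCl2, 0.01% NP-40, 0.01% BSA; read 525/598 nm at 0 and 30 min.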
TRPML1 agonist – agonists of human TRPML1 channel; Q9GZU1; TRPML1-expressing cells, Ca2+ dye fluorescence, FDSS; host cell line not named in the record; reference of the full effect not given here; activation, % (concentration not given with the values); 410,000 compounds, 0.12% hits; in the data active = activation above about 50%; inconclusive = about 30% to 50%; inactive = below about 30%; also: 0% is about no effect; the text of the record puts the active cut at 80%
Target sequence (Q9GZU1 whole entry, looked up): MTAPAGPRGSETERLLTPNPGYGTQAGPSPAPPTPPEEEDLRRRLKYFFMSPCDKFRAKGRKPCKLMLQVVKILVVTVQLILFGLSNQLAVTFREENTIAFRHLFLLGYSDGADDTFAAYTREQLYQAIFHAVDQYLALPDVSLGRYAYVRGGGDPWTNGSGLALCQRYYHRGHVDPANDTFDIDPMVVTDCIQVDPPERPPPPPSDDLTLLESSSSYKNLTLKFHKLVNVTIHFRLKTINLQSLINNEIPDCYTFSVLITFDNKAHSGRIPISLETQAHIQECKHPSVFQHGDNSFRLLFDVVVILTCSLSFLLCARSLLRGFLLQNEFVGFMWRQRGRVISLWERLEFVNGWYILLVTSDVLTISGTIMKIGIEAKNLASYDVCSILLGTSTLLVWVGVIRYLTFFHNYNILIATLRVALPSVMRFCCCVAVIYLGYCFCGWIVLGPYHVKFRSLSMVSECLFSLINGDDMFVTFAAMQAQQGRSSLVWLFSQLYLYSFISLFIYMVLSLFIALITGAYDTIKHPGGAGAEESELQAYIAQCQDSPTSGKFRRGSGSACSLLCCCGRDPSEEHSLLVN
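In this qHTS format, compounds were pin-transferred onto Ca8-dye-loaded TRPML1-DL cells induced with Tet overnight, and intracellular Ca2+ fluorescence was recorded kinetically for 110 s after a 10 s baseline. A subsequent 4uM final 54-4 (EC80) addition followed by a second 110 s read served as the antagonist phase.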
TRPV1 PAM – potentiators of human vanilloid receptor 1 (TRPV1); Q8NER1; TRPV1-expressing cells, Fluo-8 calcium influx, capsaicin EC20 potentiation; host cell line not named in the record; control for the full effect not named in the record; potentiation, % at 8.33 µM; 320,000 compounds, 0.02% hits; AID 540277; active means potentiation above 80%; inconclusive means 30% to 80%; inactive means below 30%; also: 0% is about no effect
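Cells expressing TRPV1 were dye-loaded with Fluo-8 and read kinetically: 10 s baseline, 3 min after compound (agonist portion), then 2 min after EC20 capsaicin (allosteric enhancer portion). Calcium-bound dye fluorescence at 480/520 nm.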
PINK1 expr mod – modulators of PINK1 expression; PINK1 immunofluorescence, high-content cytometry, 24 h; Potency, µM (doses to about 76.6 µM), without a hit: top-dose activation (PINK1 increase), usual class: activators; 410,000 compounds, 0.2% hits; active = well fitted activation curve with a large enough effect; inconclusive = small, poorly fitted or top-dose-only effect; inactive = flat fitted curve, though single readings scatter; cell line not stated here;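 also: potency is read from the fitted curve at half-maximal effect; % of control where 0% means no effect; nearly all actives have a fitted effect of over 65% in size; a mitochondrial uncoupler was the plate control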
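Measures PINK1 amount and localization on or inside mitochondria by immunofluorescence. Stable cells get compounds at 5 concentrations for 24 hours before fixation and staining; CCCP controls included.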
ClpP mod – qHTS Assay for Activators of ClpP | ATP-dependent Clp protease proteolytic subunit (Bacillus subtilis (strain 168)), P80244 | purified B. subtilis ClpP, FRET peptide cleavage, 20 min | Potency, µM (doses to about 57.5 µM), without a hit: at the top dose activity change, negative = active | 340,000 compounds, 1.9% hits; active = well fitted falling curve with a large enough effect; inconclusive = small, poorly fitted or top-dose-only effect; inactive = no such curve, though single readings can be large or run the other way; also: potency is read from the fitted curve at half-maximal effect; the source files actives as falling curves though it sought activators and does not explain the sign; nearly all actives have a fitted effect of over 65% in size; many hits overshoot -100%
Target sequence (P80244 whole entry, looked up): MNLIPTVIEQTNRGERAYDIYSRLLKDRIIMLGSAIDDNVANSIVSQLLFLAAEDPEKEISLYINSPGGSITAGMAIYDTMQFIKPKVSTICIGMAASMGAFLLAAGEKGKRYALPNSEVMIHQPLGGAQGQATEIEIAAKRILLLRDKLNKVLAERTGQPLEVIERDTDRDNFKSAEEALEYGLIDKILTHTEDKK
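ClpP 10 microg/mL final, pH 8 Tris/KCl buffer with BSA, glycerol, Tween-20; compound pinned in; FRET-FV substrate; RT 20 min; Ex320/Em430; ΔFRET vs ADEP 5.8 microM, DMSO, no enzyme.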
Menin-MLL FL inh – displaces fluorescein MLL peptide from human menin | Fluorescence polarization, fluorescein-MLL peptide displacement from menin | FP activity change, % at 61.4 µM | 290,000 tested, under 10 active | AID 1766; inconclusive = falling polarisation curve, or a change in total fluorescence; inactive = total fluorescence flat and polarisation flat or rising; no compound was filed as active; the % refers to the polarisation; negative = inhibition;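 also: % of control where 0% means no effect; inhibitors lower the polarisation; unlabelled MLL peptide was the positive control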
TRPML1 inh – inhibitors of human TRPML1 channel | Q9GZU1 | TRPML1-inducible cells, Ca2+ dye fluorescence, FDSS; active compounds read low; inhibition of EC80 agonist-evoked calcium signal | activity change, negative = inhibition, % (no concentration beside the values) | 390,000 compounds, 0.02% hits; in the data active means activity change below about -50%; inconclusive means about -30% to -50%; inactive means above about -30%;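 also: stimulus is agonist 54-4 at its EC80 concentration; % is scaled to controls: 0 for no effect and ±100 for the full control effect; compound concentration not given in the record; the text of the record puts the active cut at -80%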
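TRPML1-DL cells, Tet-induced overnight (~16 h, 37 °C) at 1,500 cells/well, were loaded with Ca8 no-wash dye plus quencher for 45-90 min at room temperature. Compounds were pinned during FDSS kinetic reading; agonist 54-4 at EC80 (4 uM final) then added.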
* marks the source's active call; other numbers are inactive results; u = inconclusive; x = not tested or not shown; & = joins results of further samples; [ ] = another dose, or the depositor's remark.

The line under a structure holds: Sfp PPTase inh	TRPML1 agonist	TRPV1 PAM	PINK1 expr mod	ClpP mod	Menin-MLL FL inh	TRPML1 inh
> Cc1cc(C)c(/C=C/c2onc(C)c2S(=O)(=O)N2CCC(C(=O)Nc3cccc(C)c3C)CC2)c(C)c1
→ x	-0.2	x	-0.3%	-2.3%	x	-19
> Cc1ccc(C2=NC3(CCCC3)N=C2SCC(=O)Nc2ccc3c(c2)OCCO3)cc1
→ -11%	1.7	-18	0.0%	-0.3%	0.7	6
> CCOc1ccc(=O)n(-c2ccccc2)n1
→ -3%	-0.7	9	-1.7%	1.2%	2.5	-15
> O=C(COC(=O)c1ccc2c(c1)OCO2)Nc1ccccc1F
→ x	-1.0	3	-0.7%	-8.2%	x	-14
> CN(C)C(=O)CNc1ccn2nc(-c3cccc(OCCN4CCOCC4)c3)cc2n1
→ x	-0.1	x	-1.0%	4.2%	x	0
> COc1ccccc1N=c1scc(-c2ccc(S(=O)(=O)N3CCCC3)cc2)n1C
→ x	-0.2	x	-0.4%	-0.6%	x	9
> O=C(NCCc1ccccc1)C(=O)NCC1OCCN1S(=O)(=O)c1ccccc1 (stereo not given)
→ 21%	0.7	22	3.3%	x	0.9	-12
> CCOC(=O)C(Cc1ccc(O)cc1)NC(=O)c1cc2c(cn1)[nH]c1ccccc12 (stereo not given)
→ x	-0.3	x	3.5%	4.8%	x	x
> CN(C)S(=O)(=O)c1ccc(C(=O)N(c2ccccn2)c2ccccn2)cc1
→ 17%	-0.5	4	0.2%	5.3%	0.8	-1
> Cc1cc2nnc(SCC(=O)N3C(C)CCCC3C)n2c(N)n1 (stereo not given)
→ 10%	0.3	3	-1.7%[38.3 µM]	-1.8%	3.5	-9
> Cc1cc(C)cc(N(CCC#N)C(=O)COC(=O)CCc2c[nH]c3ccccc23)c1
→ x	2.0	13	4.1%	-2.1%	x	-8
> Cn1c2c(c(O)c(-c3ccccc3)c1=O)C(=O)CC(C)(C)C2
→ 0%	-0.1	-12	1.1%	-2.5%	1.4	0
> CCCCN(Cc1ccco1)C(=O)c1cc2c(=O)[nH]c3ccc(C)cc3c2s1
→ -12%	2.4	6	6.5%	4.1%	-0.8	-6
> CC(=O)Nc1ccc(C(=O)N2CCCCC2c2cc(C(=O)NC(C)C)no2)cc1 (stereo not given)
→ x	-0.1	x	0.0%	-1.0%	x	x
> Cc1ccc(CS(=O)(=O)CCC(=O)NCCc2ccccc2)cc1
→ 11%	-1.3	8	1.4%	0.1%	-0.1	-4
> CCOc1ccc(C2C(=O)N(C3CCCCCC3)CC(=O)N2Cc2ccc(C)cc2)cc1OC (stereo not given)
→ x	0.5	x	2.3%	0.4%	x	-10
> CCn1c(C)nnc1SCC(=O)Nc1ccccc1OC
→ 2%	-0.7	-10	-0.2%	1.0%	-1.9	3
> O=C(O)c1ccccc1-c1ccc(C=c2sc3nc4cc(Br)cnc4n3c2=O)o1
→ x	8.6	x	-0.9%	-13%	x	x
> COc1cccc(N2C(=O)C3CCCN3C2c2ccc(Cl)cc2)c1 (stereo not given)
→ -7%	0.3	x	1.3%	1.4%	4.4	-4
> CCN1C[C@@H]2[C@@H]3C(=O)N(C)C(=O)[C@@H]3[C@](Cc3ccccc3)(C1=O)N2C(=O)c1ccc(Cl)cc1
→ x	-0.4	x	0.2%	-2.6%	x	7
> Cc1noc(C)c1CSCC(=O)Nc1ccc(Br)cc1Cl
→ x	1.1	-10	1.6%	-0.3%	x	1
> COc1ccc(-n2nnnc2-c2cn(C)nc2C(F)(F)F)cc1
→ 19%	-0.7	-6	0.2%	1.4%	-0.9	-4
> CCN1CCN(c2ccc([N+](=O)[O-])cc2S(=O)(=O)N2CCOCC2)CC1
→ 24%	-0.4	-40	2.4%	x	-2.3	5
> O=C1CSc2ccc(C(=O)N3CCN(c4ccccn4)CC3)cc2N1
→ 7%	0.1	4	1.1%[38.3 µM]	-11%	1.4	10
> CCOC(=O)Nc1ccc(Cc2ccncc2)cc1
→ 3%	-0.6	-6	3.0%	x	-7.6	5
> CC(/C=C/c1ccco1)=N/NC(=O)C1COc2ccccc2O1 (stereo not given)
→ u	-0.5	7	9.8%	-0.1%	1.5	15
> CCOc1ccc(-c2c(C(=O)N/N=C/c3ccsc3)nnn2-c2nonc2N)cc1
→ 14%	0.0	2	2.2%	-2.9%	1.2	2
> Cc1ccc(/C=N\Nc2cn[nH]c(=O)c2Cl)cc1
→ -4%	1.2	10	-4.9%[38.3 µM]	u	2.1	10
> CC(=O)NNC(=S)NCCc1ccccc1
→ 17%	-0.5	-13	1.6%	x	-2.6	2
> COC(=O)C1N[C@@H]([C@@H](NC(=O)COc2ccccc2)C(=O)NCc2ccccc2)SC1(C)C (stereo not given in full)
→ x	0.4&-0.9	x	-0.1%	-1.2%&2.0%	x	50
> O[C@H]1CN(Cc2cccs2)[C@@H](c2ccccc2)C[C@@H]1n1cc(C2CC2)nn1
→ x	-0.5	x	0.3%	-2.2%	x	u
> COc1ccc(C2C(C(=O)NCCN(C)C)c3cc(OC)c(OC)cc3C(=O)N2C)cc1OC (stereo not given)
→ 16%	0.7	-1	0.8%	-1.9%	2.3	-6
> COC(=O)C1=CN(C)C=C(C(=O)OC)C1c1ccc(Cl)cc1Cl
→ 12%	3.9	5	3.9%	-28%	-1.2	4
> COc1ccc(N2C(=NC(=O)c3ccccc3)SC3CS(=O)(=O)CC32)cc1 (stereo not given)
→ -9%	-0.4	u	-0.6%	x	1.8	-7
> COc1ccc(N2C(=O)CSC2c2cccc(OC)c2OC)cc1 (stereo not given)
→ -5%	-0.4	29	1.7%	-8.6%	6.1	12
> CC1=C(C(=O)N(C)C)C(c2cccc(Cl)c2)NC(=O)N1 (stereo not given)
→ 16%	2.1	7	-0.6%	0.0%	6.5	4
> O=C(NC1CCC(O)CC1)c1cc(-c2ccc(Cl)cc2)nc2ccccc12 (stereo not given)
→ x	0.5	-1	-0.1%	-4.7%	x	-13
> CCOC(=O)c1c(N)n[nH]c1-c1ccc(OC)cc1
→ 10%	0.0	2	-6.2%[38.3 µM]	-0.6%	3.8	5
> CCc1cc(CC)c(/C=N/NC(N)=O)c(CC)c1/C=N/NC(N)=O
→ 12%	-0.9	6	5.7%	x	1.6	18
> CCOc1ccc(CCN2C(=O)C(=O)N([C@@H](Cc3ccc(O)cc3)CN3CCC[C@H]3CN3C(=O)C(=O)NC[C@@H]3CC(C)C)C[C@@H]2Cc2ccccc2)cc1
→ x	-0.4	x	1.1%	-1.5%	x	x
> CCc1ccccc1NC(=O)c1cc(-c2ccco2)on1
→ 3%	0.8	13	5.5%	x	-1.6	1
> c1ccc(-n2c(Sc3cnccn3)nnc2-c2cccs2)cc1
→ 15%	1.9	-21	0.8%	-2.6%	6.1	-19
> CCOC(=O)CSc1nnc(CSc2nc3ccccc3s2)n1C
→ 10%	0.0	-13	-1.7%[38.3 µM]	-4.9%	4.8	24
> COc1cc(NC(=O)CSc2cc(C)c3cc(C)cc(C)c3n2)c(C(=O)O)cc1OC
→ -16%	0.6	23	-0.2%	0.0%	5.3	15
> COc1ccccc1N1CCN(C(CNC(=O)C(=O)NCc2ccc(F)cc2)c2cccnc2)CC1 (stereo not given)
→ x	1.9	x	-0.5%	-3.3%	x	-24
> CCCCOc1ccc(C(=O)NCC(=O)NC2CCC(C)CC2)cc1 (stereo not given)
→ x	0.4	-18	u	-0.5%	x	-10
> CCOC(=O)c1c(-n2c(C)cc(C=O)c2C)sc2c1CCCC2
→ u	1.4	-7	2.2%[38.3 µM]	0.0%	3.2	-5
> CCOC(=O)C1(Cc2ccc(OC)cc2)CCN(C(=O)c2cc3ccccc3[nH]2)CC1
→ -10%	-0.2	-31	5.4%	x	2.1	2
> O=C(NC1CCCCCCC1)c1cccs1
→ -21%	-0.8	-18	-1.0%	x	-1.6	-9
> O=C(NCC1CCCO1)/C(=C\c1ccco1)NC(=O)c1ccc(Cl)cc1 (stereo not given)
→ 23%	5.8	u	-0.2%	0.7%	-6.5	1

Going on with the list:
The line under a structure holds: Sfp PPTase inh	TRPML1 agonist	TRPV1 PAM	PINK1 expr mod	ClpP mod	Menin-MLL FL inh	TRPML1 inh
> CN(CC(=O)Nc1c(Cl)cccc1Cl)C(=O)CC1Sc2ccccc2NC1=O (stereo not given)
→ x	-0.2	3	-0.6%	-0.2%	x	8
> CCCCCCC(=O)Nc1nc(C)c(-c2csc(Nc3cc(Cl)ccc3C)n2)s1
→ -5%	0.4	-4	0.3%	-0.3%	5.9	4
> O=C(O)c1ccccc1C(=O)OCCCc1ccncc1
→ x	0.1	11	-0.2%	-0.3%	x	0
> COc1ccc(OC)c(NC(=O)COc2coc(CN3CCCc4ccccc43)cc2=O)c1
→ x	-0.5	3	5.8%	-0.5%	x	5
> COc1cccc(/C=N/NC(=O)c2nnn(-c3nonc3N)c2CN(C)C2CCCCC2)c1
→ x	-0.2	x	1.6%	-2.6%	x	5
> COc1cc(/C=C/c2nc3ccccc3s2)cc(OC)c1O
→ -39%	8.1	5	-0.9%	-3.0%	u	-26
> Cc1ccc(C(=O)COC(=O)C(C)N2C(=O)C3C4C=CC(C4)C3C2=O)cc1 (stereo not given)
→ 7%	0.5	-6	0.9%	-1.5%	7.5	-19
> COC(=O)c1ccc(NC(=O)CN2C(=O)CCC2=O)cc1
→ 15%	-0.4	15	-1.1%	1.1%	1.4	-1

Assay outcomes: PubChem BioAssay, National Center for Advancing Translational Sciences (NCATS)
